Source: PubChem (several laboratories)
Bfl-1 A1 inh = inhibitors of the anti-apoptotic protein A1, read as caspase activation. MEF A1-2A-BIM cells, Caspase-Glo 3/7 luminescence, 3 h; percent of clofoctol response, vehicle zero. caspase activation, % (no concentration beside the values). 0.066% of 330,000 active. AID 2462;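 active means over half of replicate activation scores above 10%, or exactly half above 10 with the replicate mean above 10; inconclusive means replicate mean below 10 yet half the replicates above 10; inactive means over half of replicates below 10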;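 further: wells of about 30 µL received 50 nL stock; many hits fall short of the cut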
Beta cell apopt = blocks beta cell apoptosis. INS-1E cytokine-induced death, ATP luminescence, 48 h; percent of positive-control rescue, neutral wells zero. protection from apoptosis, % (concentration not given with the values). 0.8% of 300,000 active. AID 435005;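 active means all replicates at 75% or more, or half of them and the mean; inconclusive means half reach 75% but not the mean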;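 further: 0% = cytokine-treated negative control wells and 100% = positive control rescue; higher means more ATP so stronger rescue from cytokine killing; wells of about 40 µL received 100 nL stock; the first replicate is given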
AF4-AF9 inh = inhibitors of human MLL-AF4/AF9 interaction; P42568; AlphaScreen, biotin-AF4 peptide binding to FLAG-AF9; inhibition, % at 10 µM; 0.47% of 350,000 active; AID 651704;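 active means every replicate reaching a set inhibition limit, whatever the replicate mean, cut at about 25% in these data; inconclusive means mean inhibition reaches that limit but some replicates miss it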;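 further: 0% = plate neutral control median and 100% = total signal loss; the record names both 10 and 1 µM as test concentration; the first replicate is given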
Target sequence (P42568 whole entry, looked up): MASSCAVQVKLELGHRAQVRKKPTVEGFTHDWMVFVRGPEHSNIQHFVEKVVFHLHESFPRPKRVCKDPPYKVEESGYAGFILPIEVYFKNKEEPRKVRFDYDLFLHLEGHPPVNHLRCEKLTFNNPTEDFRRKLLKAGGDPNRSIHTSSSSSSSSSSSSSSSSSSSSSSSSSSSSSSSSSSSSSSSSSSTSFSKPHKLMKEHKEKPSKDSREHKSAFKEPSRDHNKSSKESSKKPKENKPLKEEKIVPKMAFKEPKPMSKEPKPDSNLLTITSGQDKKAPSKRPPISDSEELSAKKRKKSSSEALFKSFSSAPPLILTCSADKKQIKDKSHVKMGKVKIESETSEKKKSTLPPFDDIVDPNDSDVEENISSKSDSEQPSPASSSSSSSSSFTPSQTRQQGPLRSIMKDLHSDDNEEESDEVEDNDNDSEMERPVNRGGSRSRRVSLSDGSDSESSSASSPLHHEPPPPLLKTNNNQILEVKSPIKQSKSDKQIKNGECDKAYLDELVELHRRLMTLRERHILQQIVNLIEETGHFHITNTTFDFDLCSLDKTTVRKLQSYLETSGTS
FGF22 binding = shifts melting point of recombinant human FGF22; Q9HCT0; recombinant FGF22 thermal shift, SYPRO orange fluorescence; percent of sucrose octasulfate shift, DMSO zero; calls only at 9.99 µM; 1.5% of 340,000 active; AID 651658;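 active means melting point raised past a set limit in the mean and every replicate; inconclusive means no clear call; three in four hits are not shown here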
Target sequence (Q9HCT0 whole entry, looked up): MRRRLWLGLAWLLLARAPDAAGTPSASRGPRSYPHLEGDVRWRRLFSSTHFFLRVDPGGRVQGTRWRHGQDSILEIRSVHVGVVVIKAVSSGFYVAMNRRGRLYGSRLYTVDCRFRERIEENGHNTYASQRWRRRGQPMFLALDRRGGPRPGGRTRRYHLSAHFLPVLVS
UCH37 DUB inh = inhibitors of human deubiquitinating enzyme UCH37; purified proteasome/UCH37, Ub-AMC cleavage fluorescence; 0.33% of 330,000 active; inhibition, % (test concentration not listed); AID 588478; Q9Y5K5;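 active means mean of two replicates above 20%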;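 further: 0% = compound-free wells with enzyme and 100% = wells lacking proteasome; stock transfer was 100 nL into about 20 µL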
Target sequence (Q9Y5K5 whole entry, looked up): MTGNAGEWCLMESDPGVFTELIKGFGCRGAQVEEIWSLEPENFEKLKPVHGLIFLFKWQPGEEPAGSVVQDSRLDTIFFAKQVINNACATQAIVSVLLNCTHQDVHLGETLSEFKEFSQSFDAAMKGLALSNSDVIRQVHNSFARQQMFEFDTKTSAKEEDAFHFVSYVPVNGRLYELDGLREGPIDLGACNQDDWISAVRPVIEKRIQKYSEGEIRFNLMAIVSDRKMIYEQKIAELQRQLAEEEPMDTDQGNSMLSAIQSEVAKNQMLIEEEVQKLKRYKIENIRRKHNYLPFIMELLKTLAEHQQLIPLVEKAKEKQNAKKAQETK
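Reagent: Ub-AMC substrate; assay system: Proteasome-associated human UCH37 deubiquitinase; controls: no-proteasome and no-compound wells; read-out: % inhibition of Ub-AMC cleavage fluorescence; timing: 30 min preincubation with enzyme, 25 min cleavage at room temperature; signal: AMC fluorescence from Ub-AMC cleavage, excitation 355 nm, emission 460 nm; buffer or medium: Tris-HCl pH 7.4 plus ovalbumin, ATP-MgCl2, DTT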
Ecoli growth = blocks Escherichia coli growth | OD600, 23 h; hits give low values | OD600 absorbance (test concentration not listed) | 0.21% of 330,000 active;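 active means OD600 absorbance below the run mean of sample wells minus 3.6 SD, in any replicate, cut at about 0.56 in these data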;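 further: stock transfer was 300 nL into about 60 µL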
rRNA inh HTS = selective bacterial rRNA inhibition in E. coli; E. coli WT GFP vs humanized-ribosome RFP mutants, fluorescence, 24 h; hits give low values; DMSO median 0, no signal -100; GFP signal change (wild-type ribosome), % (concentration not given with the values); 1.6% of 350,000 active;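 active means significant combined selectivity score with lowered wild-type GFP, culture density cut under 30%, mutant RFP and density less affected; inactive means any of these conditions unmet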; further: one replicate is shown; some compounds called inactive have numbers as strong as hits
T cruzi inh = T. cruzi replication inhibition | inhibition, % (concentration not given with the values) | T. cruzi beta-gal in NIH3T3, luminescence, 90 h | 1.4% of 300,000 active;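 active means mean inhibition across valid replicates above about 55%, limit read from the data; inconclusive means mean below that limit but half or more replicates reach it; inactive means mean below it, under half of replicates reach it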;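 further: signal also drops with host cell toxicity which is not excluded here; 0% = plate median of DMSO wells and 100% = zero luminescence signal; higher percent means less beta-gal luminescence so fewer parasites; stock transfer was 50 nL into about 50 µL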
rRNA inh HTS OD600 = recorded beside rRNA inh HTS, whose call it bears; OD600 change, %; measured here: OD600 growth;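 optical density of the mix in the first replicate; 0 = DMSO median and -100 = no signal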
rRNA inh HTS RFP = also measured in rRNA inh HTS; calls as there; RFP signal change, %; measured here: RFP humanized mutant strains;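 first replicate; 0 = DMSO median and -100 = no signal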
* hit, by the source's call; i = inactive; ? = inconclusive; · = no result given.

SMILES	Bfl-1 A1 inh	Beta cell apopt	AF4-AF9 inh	FGF22 binding	UCH37 DUB inh	Ecoli growth	rRNA inh HTS	rRNA inh HTS OD600	rRNA inh HTS RFP	T cruzi inh
COc1ccc(C(O)c2nc3ccccc3n2C(C)C)cc1 (stereo not given)	0.3	0	4.9	i	5.3	0.7	2	-2	2.5	-4
C/C(=N\Nc1ccc([N+](=O)[O-])cc1[N+](=O)[O-])C(C)C(C)C (stereo not given)	-1.2	15	26*	i	·	·	-17	1	-4.5	4
Cc1noc(C)c1CSCC(=O)Nc1ccc(OC(F)F)c(Cl)c1	0.6	·	-0.9	i	-0.8	0.7	-5	-2	-2.1	15
CN1CCN(CC(=O)Nc2cccc([N+](=O)[O-])c2)CC1	0.4	-5	-17	·	5.7	0.7	5	8	0.7	20
COCCNC(=S)N(CCc1c(C)[nH]c2ccc(F)cc12)Cc1ccco1	1.3	0	2.8	i	1.2	0.67	-15	-13	3.9	9
CN(C)S(=O)(=O)c1cccc(COc2ccccc2C(=O)Nc2ccccc2)c1	-0.4	-8	0.5	i	-1.7	0.67	-11	-5	0.9	25
CCN(CC(=O)Nc1ccc2c(c1)OCCO2)C(=O)c1cc(=O)[nH]c2ccccc12	1.3	-2	-7.0	i	-3.5	0.66	0	5	-1.3	-4
Cc1ccc(NS(=O)(=O)c2c(C)[nH]c(=O)[nH]c2=O)cc1F	0.7	2	-5.7	i	0.5	0.67	3	-1	-6.9	-2
Nc1nnnn1/N=C/c1ccccc1	-0.5	-9	-1.4	i	·	·	6	5	-1.2	-2
Cc1cc(C)nc(N/N=C/c2ccncc2)n1	0.5	-1	-0.5	i	·	·	9	6	-2.0	-8
O=C(NC(=S)NNC(=O)c1cccs1)c1ccc(Br)o1	-1.0	6	3.2	i	13	0.55	-32	-34	3.1	-8
COc1ccc(NC(=O)CN2CCCCC2)cc1	-0.3	-2	·	·	0.3	0.74	·	·	·	9
CC1CCCCN1CCNC(=O)Cn1nc(-c2ccccc2)ccc1=O (stereo not given)	-0.5	-3	8.0	i	0.5	0.65	15	5	1.3	-11
Cc1nonc1NC(=O)OCCN1CCOC1=O	-0.3	-9	11	i	1.5	0.69	9	7	-6.3	-10
CCOC(=O)C1(CCOC)CCN(C(=O)c2sccc2C)CC1	0.5	0	-19	i	·	·	7	12	-3.6	-6
O=C1CC(N2CCC(c3nc4ccccc4o3)CC2)C(=O)N1c1ccc(F)cc1 (stereo not given)	0.8	-5	-0.9	i	1.0	0.64	20	12	-0.2	5
CC1=C(C(=O)OCCNC(=O)c2ccccc2O)C(c2ccccc2[N+](=O)[O-])C(C(=O)OCC2CCCO2)=C(C)N1 (stereo not given)	0.4	?	·	·	6.1	0.72	·	·	·	18
CCOC(=O)C1CCN(C(=O)CCC(=O)NCCc2ccc(Cl)cc2)CC1	0.4	-3	-2.1	i	0.7	0.66	-10	-5	-1.4	8
COc1ccc(CC(=O)Nc2ccc(S(=O)(=O)N3CCCC3)cc2)cc1OC	0.5	-1	-1.5	i	-0.8	0.64	-4	-7	0.9	·
CC(=O)N=c1sccn1CC(=O)c1ccc([N+](=O)[O-])cc1	1.6	-6	·	·	4.5	0.72	·	·	·	-14
Fc1ccc(CN2CCCN(C(=S)Nc3ccc(F)cc3)CC2)cc1	-0.4	-2	1.7	i	3.1	0.63	-5	9	1.6	23
COc1ccc(O)c(C(=O)CC(=O)c2ccncc2)c1	·	·	4.0	i	-107	0.66	5	-37	-11	·
CCOC(=O)c1c(C)n(CC(COC(C)=O)OC(C)=O)c2ccc(OC(C)=O)cc12 (stereo not given)	0.2	-3	·	·	1.3	0.66	·	·	·	-12
COc1ccc(C(=O)NC(Cc2c[nH]c3ccccc23)C(=O)O)cc1 (stereo not given)	1.3	-3	-1.7	i	2.4	0.66	4	3	-0.2	-2
Cc1ccc(S(=O)(=O)N2CCN(C(=O)C(F)(F)F)C2c2ccc(N(C)C)cc2)cc1 (stereo not given)	-0.9	3	0.1	i	3.6	0.71	7	4	-1.4	-6
Clc1ccc(CN2C3=NCCCN3c3ccccc32)cc1	0.7	8	·	·	1.3	0.65	·	·	·	16
O=C(COC(=O)c1ccc(O)cc1)c1ccc(S(=O)(=O)N2CCCCC2)cc1	0.3	-3	0.3	i	2.9	0.7	-28	-26	-4.5	·
Cc1cc(C)nc(S/C=C/C(=O)c2ccccc2)n1	3.4	12	3.1	·	4.6	0.68	17	19	4.7	12
Cc1cc(C)c(NC(=S)N(CCN(C)C)Cc2cccs2)c(C)c1	2.2	-2	2.7	i	4.6	0.7	-7	4	0.0	1
COc1ccc(C(=O)N2CCN(C(=O)CC(C)C)CC2)cc1OC	-0.8	-6	·	·	-1.0	0.69	·	·	·	-5
O=C(CCN1C(=O)C2CC=CCC2C1=O)Nc1nc(-c2ccc(F)c(F)c2)cs1 (stereo not given)	-0.4	0	-12	i	1.5	0.65	-11	-47	-4.9	·
COc1ccc(-c2noc(=O)n2Cc2ccccc2F)cc1	0.8	-4	-5.9	i	1.9	0.71	-1	6	-0.3	-13
Cc1oc2c(C)c3oc(=O)c4c(c3cc2c1C)CCCC4	0.9	6	-5.0	·	-13	0.71	·	·	·	17
COc1ccc(CCNC(=O)CC(Cc2ccc(C)cc2)C(=O)O)cc1OC (stereo not given)	1.2	-6	1.3	i	2.6	0.67	2	12	-0.9	1
COCCN1CCN(C(=O)c2cc(COc3ccc(F)cc3Cl)on2)CC1	0.1	-2	-0.8	i	3.0	0.71	1	-11	0.7	-9
Cc1ccc(CSc2nnc(SCC(=O)N/N=C/c3c(C)nn(-c4ccccc4)c3C)s2)cc1	-4.8	-2	-0.7	i	·	·	·	·	·	10
CN1C(=O)c2oc3ccccc3c(=O)c2C1c1ccccn1 (stereo not given)	0.5	-5	·	·	1.5	0.79	·	·	·	-13
Cn1c(CNC(=O)CNC(=O)c2ccc(C(C)(C)C)cc2)cc(=O)n(C)c1=O	-0.8	-3	0.8	i	-1.0	0.72	0	-2	0.3	-17
COC(=O)Cc1ccc(NC(=S)NCc2ccc(S(N)(=O)=O)cc2)cc1	-1.1	·	0.9	i	4.6	0.7	4	9	-1.1	0
CCn1c(N2CCN(C(=S)NCC(C)C)CC2)nc2ccccc21	-0.8	9	0.0	i	3.5	0.71	-9	-9	-1.5	6
COc1ccccc1NC(=O)CCC(=O)Nc1cc(OC)c(NC(=O)c2cccs2)cc1OC	0.5	-1	-3.2	i	3.3	0.65	0	14	-2.2	-4
COc1ccc(OCC(O)CNC(=O)c2c(-c3ccccc3)noc2C)cc1 (stereo not given)	0.8	0	-2.8	i	4.2	0.66	·	·	·	-6
COC(=O)c1cn(CC(=O)Nc2ccccc2C)c2ccccc12	-0.1	-4	-2.4	i	2.2	0.69	24	19	1.7	4
Cc1nnc(SCc2nnc(-c3ccccc3)o2)n(N)c1=O	0.1	0	·	·	1.3	0.75	·	·	·	26
CCC(=O)Nc1nnc(-c2cccs2)s1	0.7	1	-1.1	i	-38	0.64	12	13	0.0	1
CCOc1ccc(CSC(=N)N)cc1	0.3	-1	1.9	i	5.9	0.7	11	6	-6.6	-17
Cn1c(SCC(=O)NC2CCCC2)nnc1-c1ccc(S(=O)(=O)N2CCOCC2)cc1	0.8	·	·	·	4.5	0.72	·	·	·	0
O=C1CCN(S(=O)(=O)c2cc(C(F)(F)F)ccc2Cl)CC1	-0.1	-3	-5.1	i	4.4	0.68	10	3	0.0	·
CCCN=Cc1c(CCC)[nH]n(-c2nc3ccccc3s2)c1=O	-1.0	9	·	·	2.5	0.68	·	·	·	15
CCc1cccc(Nc2c([N+](=O)[O-])cc(C(=O)N3CC(=O)Nc4ccccc43)cc2[N+](=O)[O-])c1	0.2	12	10	i	4.7	0.69	7	8	-4.6	77*
COc1ccc([N+](=O)[O-])cc1NC(=O)COC(=O)c1ccccc1C(=O)c1ccccc1	-0.2	-5	·	·	2.4	0.72	·	·	·	10
Cc1ccc(N=C2NC(=O)/C(=C/c3cccnc3)S2)cc1C	0.3	-3	-3.5	i	4.0	0.63	12	10	-0.2	3
CNc1nc(N)c(C(=O)C(C)(C)C)s1	0.6	-2	2.8	i	11	0.69	8	7	0.0	-1
COc1ccc(N(CC(=O)NCc2ccccc2)S(C)(=O)=O)cc1	-0.2	1	·	·	3.2	0.7	·	·	·	-7
CCn1ccc(C(=O)Nc2ccc(N(C)C(C)=O)cc2)n1	-0.2	1	·	·	0.7	0.69	·	·	·	2
CCN(C(=O)CSc1nnc(-c2ccc(OC)cc2)n1C(C)C)C1CCS(=O)(=O)C1 (stereo not given)	-1.1	-7	-1.6	i	3.6	0.71	8	8	-1.2	·
Cc1ccc(-c2noc(CN3C(C)CCCC3C)n2)cc1 (stereo not given)	-0.5	-7	-2.7	i	4.1	0.71	3	-1	6.6	-8
COc1ccc2c(c1)CCC1C2CCC2(C)C(O)C(=O)CC12 (stereo not given)	·	·	-5.1	i	1.5	0.69	-17	-40	-2.7	·
N#Cc1sc2nc(N3CCCCC3)c3c(c2c1N)CCCC3	0.4	8	·	·	-16	0.69	·	·	·	-1
CCCCCNC(=O)C1CC(=O)OC12CCCCC2 (stereo not given)	0.4	-4	-2.7	·	4.4	0.69	22	14	1.9	-22
Additional results follow:
SMILES	Bfl-1 A1 inh	Beta cell apopt	AF4-AF9 inh	FGF22 binding	UCH37 DUB inh	Ecoli growth	rRNA inh HTS	rRNA inh HTS OD600	rRNA inh HTS RFP	T cruzi inh
O=C(OCC(=O)c1ccccc1)C1=NN(c2ccccc2)C(=O)CC1	-0.3	-7	2.2	i	4.9	0.68	8	7	-0.9	·
CCOC(=O)c1c(C)oc(C)c(C(=O)OCC)c1=O	-0.8	-6	-2.5	·	·	·	11	18	4.0	6
O=C(NCC1CCCO1)c1cccc(S(=O)(=O)N(Cc2ccccc2)c2ccccc2)c1 (stereo not given)	0.2	-2	-7.4	i	·	·	-37	-46	-8.0	10
O=C(CNC(=O)c1ccccc1F)OCCOc1cccc(Cl)c1	0.7	-3	-1.7	·	3.6	0.68	-4	-8	-4.7	-6
Cc1cc(=O)oc2cc(OCC(=O)Nc3c(Cl)cccc3C(F)(F)F)ccc12	0.0	9	-0.9	i	-7.3	0.7	2	1	0.0	-8
COc1ccc(C(NC(=O)C(C)C)c2ccc3cccnc3c2O)cc1 (stereo not given)	-1.1	104*	-2.6	i	2.9	0.59	-50	-75	-32	54

An excerpt from above, limited to Ecoli growth:
Structure	Ecoli growth
Cc1nnc(SCc2nnc(-c3ccccc3)o2)n(N)c1=O	0.75
CCC(=O)Nc1nnc(-c2cccs2)s1	0.64

An excerpt, so the mix of outcomes need not match the whole.
